Arbovirus inh – antivirals against arbovirus infection, primary screen, cell-based, full library, 10K replicate subset. arbovirus infection cell-based antiviral screen. inhibition, % at 10 µM. 200,000 tested, 0.37% active;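 active = inhibition from about 30%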;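 note: bluetongue infection of BSR cells; cell survival read as ATP light after 72 h; 0% = infected wells without compound and 100% = uninfected wells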
Mtb H37Rv – M. tuberculosis H37Rv growth inhibitors, H37Rv strain (AID 1626). 220,000 tested, 0.95% active. M. tuberculosis H37Rv growth inhibition; higher % means a stronger effect. inhibition, % at 10 µM, or IC50 in µM where a hit was titrated;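 active = confirmed in a dose series; inconclusive = inhibition above 80% but not taken into the dose series; inactive = below 80% or under 30% at every dose of the series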;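 note: bacteria incubated seven days before Alamar blue readout; 0% = bacteria only wells and 100% = bacteria with antibiotic wells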
Mtb betalactam – beta-lactam sensitization of Mtb H37Rv, H37Rv. inhibition, % at 25 µM. M. tuberculosis H37Rv growth with meropenem, percent inhibition; hits of this screen are not shown here. AID 434955, 2010. 330,000 tested, 0.27% active;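 active = about 74% or more and at least 40 points above the plate without the antibiotic, then above 30% in a dose series; inconclusive = first-round hits that could not be retested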;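 note: growth measured after seven days incubation then overnight dye step; 0% = bacteria only wells and 100% = bacteria with antibiotic; twin plates without the antibiotic show which effects depend on it; some results filed as inactive read as strong as hits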
RecA intein inh – Mtb RecA intein splicing inhibitors, primary screen, biochemical, fluorescence, HTS. inhibition, %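 (about 9 µM by stock and volumes)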. cell-free RecA intein splicing. Protein RecA (Mycobacterium tuberculosis (strain ATCC 25618 / H37Rv)), P9WHJ3. 290,000 tested, 0.75% active; in the data active = inhibition above about 30%; inconclusive = no clear call, values can overlap the other calls;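 note: 0% = vehicle wells and 100% = reference inhibitor control wells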
Target sequence (P9WHJ3 whole entry, looked up): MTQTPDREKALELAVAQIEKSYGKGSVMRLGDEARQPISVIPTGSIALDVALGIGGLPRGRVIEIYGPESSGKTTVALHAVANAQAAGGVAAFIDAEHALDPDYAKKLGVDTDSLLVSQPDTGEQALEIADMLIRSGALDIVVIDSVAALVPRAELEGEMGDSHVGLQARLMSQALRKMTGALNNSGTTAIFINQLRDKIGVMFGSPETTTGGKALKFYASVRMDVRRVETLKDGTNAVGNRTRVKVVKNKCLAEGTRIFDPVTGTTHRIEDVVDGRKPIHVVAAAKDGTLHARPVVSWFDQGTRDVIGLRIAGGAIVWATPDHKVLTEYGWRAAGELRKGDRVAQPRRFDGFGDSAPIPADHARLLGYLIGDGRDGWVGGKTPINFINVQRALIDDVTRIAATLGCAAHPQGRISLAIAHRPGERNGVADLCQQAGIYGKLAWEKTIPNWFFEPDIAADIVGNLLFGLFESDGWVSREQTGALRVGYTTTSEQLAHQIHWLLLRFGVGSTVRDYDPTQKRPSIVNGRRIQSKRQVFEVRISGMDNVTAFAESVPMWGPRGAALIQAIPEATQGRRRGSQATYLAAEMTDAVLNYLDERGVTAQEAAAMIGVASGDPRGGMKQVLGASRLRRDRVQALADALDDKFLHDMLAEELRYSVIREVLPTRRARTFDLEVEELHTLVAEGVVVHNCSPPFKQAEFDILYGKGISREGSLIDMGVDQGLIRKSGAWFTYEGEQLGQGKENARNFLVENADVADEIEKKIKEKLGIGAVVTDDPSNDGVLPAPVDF
YopH inh – YopH tyrosine phosphatase inhibitors, primary screen, biochemical, fluorescence Ex485/Em525; AID 898, 2007; 140,000 tested, 0.16% active; inhibition, %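 (about 10 µM by stock and volumes)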; YopH tyrosine phosphatase [Yersinia enterocolitica];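 active = inhibition of 50% or more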;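 note: controls were vehicle for no effect and minimum signal wells for full effect; inactives centre near -20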
Arbovirus inh repeat – second read-out of Arbovirus inh, no call of its own (marks repeat the call); inhibition, %; measured here: 10K subset replicate screen; many hits read low in the repeat;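 first of two repeat runs on a subset; 0% = infected and 100% = uninfected wells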
* hit, by the source's call; ? = inconclusive; / = no result given; & = joins results of further samples. These rows are one share of the data (hit frequency here may not be typical).

SMILES	Arbovirus inh	Mtb H37Rv	Mtb betalactam	RecA intein inh	YopH inh	others
Cc1ccc(-c2nc3ccccc3[nH]2)cc1NC(=O)c1ccc2c(c1)OCO2	-6	7%	9	2.9	-30
O=C(CN1CCC(Cc2ccccc2)CC1)N1CCc2ccccc2C1	-2	2%	-5	2.9	/
Cc1ccc(-c2noc(CCCC(=O)NCC3CCCO3)n2)cc1 (centres undefined)	/	/	2	-4.7	/
Cc1cccc(C(C)C)c1NC(=O)c1cc2ccccc2o1	/	/	27	2.8	/
CCOC(=O)Cc1ccc(NC(=O)c2ccc([N+](=O)[O-])cc2)cc1	2	?	51	-2.1	/
O=C1c2sc3nc4ccccc4n3c2C(=O)N1c1ccccc1Cl	5	2%	-3	18	-10
COCCCNC(=O)c1cc(C(=O)c2c(-c3c(Cl)cccc3Cl)noc2C)c[nH]1	-3	-3%	4	-4.8	-23
Cc1ccc(OCC(=O)NCc2ccccn2)cc1	-3	5%	-3	1.0	-60
COc1cccc(OC)c1OCCCc1c(C)n[nH]c1C	-5	9%	?	4.0	-3
Cc1ccc(-c2noc(CCC(=O)NCCN3CCOCC3)n2)cc1	2	-8%	5	5.7	37
Cc1nc2ccccn2c1C(=O)N/N=C/c1ccccc1Cl	/	/	0	14	/
CC(=O)Nc1cc(N2C(=O)CCC2=O)ccc1Cl	4	-3%	8	2.1	-36	Arbovirus inh repeat=1
O=C(O)c1cc2cccc(S(=O)(=O)N3CCOCC3)c2cc1O	2	-11%	-10	-10	-44
O=C1CSc2ccc(S(=O)(=O)NCc3ccc(Cl)cc3)cc2N1	/	/	-5	9.6	/
COC(=O)c1sc(NC(=S)NC(=O)c2ccccc2F)nc1C	1	41%	0	/	/
COc1ccc2nc(NC(=O)CSc3nc4ccccc4o3)sc2c1	-8	-11%	48	-2.2	-28
CCOC(=O)c1ccc(Oc2nc(NC)nc(SC)n2)cc1	-10	-6%	-2	-0.8	-29
COc1cc(C(=O)N/C(=C\c2cn(S(=O)(=O)N(C)C)c3ccccc23)C(=O)N2CCCC2)cc(OC)c1OC	/	/	7	5.9	/
CC(C)N1C(=O)CCC1C(=O)NCCc1ccc(Cl)cc1 (centres undefined)	0	/	0	-1.7	-7	Arbovirus inh repeat=-1
CCCCCNC(=O)c1cc(S(=O)(=O)N2CCCC2)ccc1F	1	-9%	-4	-1.0	-16
CC(=O)n1cc([C@H]2C=C(C(=O)N3CCN(Cc4ccc5c(c4)OCO5)CC3)O[C@@H](OCCCCO)C2)c2ccccc21	-14	-1%	39	-0.2	/
Cc1cc(C)cc(NC(=S)N(Cc2ccc(Cl)cc2)Cc2ccc(C(=O)O)cc2)c1	-5	3%	6	7.6	/
Cc1c(C)n(CCN(C)C)c2ncnc(NCc3ccccc3)c12	/	/	-1	-0.4	/
COCCn1c(SCC(=O)Nc2cccc(OC)c2)nc2c(oc3ccccc32)c1=O	-11	-4%	4	1.1	/
CC(OC(=O)Cn1cnc2c1c(=O)n(C)c(=O)n2C)C(=O)NC1CCCCC1C (centres undefined)	/	/	3	-0.6	/
CC1CNCCN1S(=O)(=O)c1cccc2cnccc12 (centres undefined)	25	13%	-1&-1	1.4&2.0	-35
CCN(Cc1ccccc1)C(=O)CC(=O)N(CC)Cc1ccccc1	/	/	2	-2.9	/
N#Cc1ccc(-c2ccccc2)nc1SCCN1CCOCC1	-9	3%	4	/	-24
COCC(=O)Oc1c(S(=O)(=O)c2ccccc2)c(C)nn1C(C)(C)C	/	/	7	2.5	/
CC(C)(C)c1nc(SCC(=O)NCc2ccco2)c2ccccc2n1	5	-1%	-2	7.2	0
O=C(OCc1ccccc1)/C(=C/c1cccc2ccccc12)NC(=O)c1ccccc1	16	14%	4	2.5	-7
O=C(Cc1cccc2ccccc12)NCC(=O)Nc1ccccc1F	/	/	-12	-1.2	/
COc1ccc(NC(=S)N2CCC(N(C)CC3CCCO3)CC2)cc1 (centres undefined)	-1	-8%	9	-3.1	-16
Cc1ccccc1NC(=S)NNC(=O)c1ccncc1	1	?	75	2.5	/
COc1ccc(F)cc1C(=O)C1CCCN(Cc2ccc(Oc3ncccn3)cc2)C1 (centres undefined)	3	-4%	4	-1.8	/
NC(=S)N/N=C/c1c[nH]c2ccc(OCc3ccccc3)cc12	/	/	88	0.7	/
COC(=O)C1CCN(C(=O)Cn2nnc(-c3cccc(F)c3)n2)CC1	/	/	1	-1.5	/
Cc1cc(NS(=O)(=O)c2ccc(NC(=O)C(C)Oc3cc(C)c(Cl)c(C)c3)cc2)no1 (centres undefined)	/	/	-18	3.4	/
Cc1ccc(-n2c(CCC(=O)O)ccc2-c2cccs2)cc1C	5	-5%	52	2.4	-112
Cc1cc(=O)oc2c3c(cc(OCC(=O)NCCC(=O)O)c12)OC(C)(C)CC3	/	/	2	-1.9	/
Cc1ccc(S(=O)(=O)NN2C(=O)/C(=C\c3ccc(Cl)cc3)SC2=S)cc1	/	/	10	2.0	/
CCCCN(C)C(=O)c1ccc2c(c1)S(=O)(=O)c1ccccc1C2=O	/	/	2	1.3	/
CCOc1ccc(CCNC(=O)c2cccc(N3CCCC3=O)c2)cc1OCC	4	-7%	-9	-1.3	-6
O=C1CCCN1c1ccc(S(=O)(=O)N2CCC(c3ccccc3)CC2)cc1	6	-6%	-7	0.2	-5
Cc1ccc(-n2nnnc2SCC(=O)N2Cc3ccccc3CC2C(=O)O)cc1 (centres undefined)	/	-1%	1	2.4	/
COc1ccc([N+](=O)[O-])cc1NC1CCN(C(=O)c2cccs2)CC1	/	/	-9	1.8	/
COc1ccccc1NS(=O)(=O)c1ccc(O)c(NC(=S)NCC2CCCO2)c1 (centres undefined)	/	-12%	-3	-4.4	/
CCN(CC)CCCNC(=O)/C=C/C(=O)O	/	-10%	-3	/	/
O=S(=O)(NCCn1ccc2ccccc21)c1ccccc1	19	13%	-1	2.6	-5
COc1ccccc1-c1c(C)nn2c(NCCN3CCCC3)cc(C)nc12	0	0%	-4	-3.6	-33	Arbovirus inh repeat=0
COc1cccc(OCC(O)CN2CCN(c3ccccn3)CC2)c1 (centres undefined)	4	13%	4	-3.8	-12
Cc1ccccc1SCC(=O)NNC(=O)c1ccccc1O	/	/	9	21	/
O=C(Nc1ccc(S(=O)(=O)Nc2nccs2)cc1)c1ccc(F)cc1	/	/	-1	1.1	/
COc1cccc(/C=c2\s/c(=C\C(=O)C(C)(C)C)[nH]c2=O)c1	-8	8%	94	2.1	/
O=C(/C=C/c1ccccc1)N1CCN(Cc2nc3ccccc3c(=O)[nH]2)CC1	-1	-8%	-3	2.5	-13
Cc1ccc(-c2csc(SCC(=O)Nc3cc(C)on3)n2)cc1	2	5%	2	-0.9	-31
CCS(=O)(=O)c1ccc(-c2cccc(NC(=O)COc3ccc(Cl)cc3)c2)nn1	/	/	4	-0.3	/
O=S(=O)(Nc1ccc2ccccc2n1)c1ccccc1	/	/	-17	1.2	/
Cc1ccc2cc(CN(Cc3ccco3)C(=S)NCC3CCCO3)c(=O)[nH]c2c1 (centres undefined)	-4	3%	3	2.3	/
O=S(=O)(Nc1nc2ccccc2nc1Cl)c1ccc(F)cc1	/	-5%	-4	-10	/
Continued:
SMILES	Arbovirus inh	Mtb H37Rv	Mtb betalactam	RecA intein inh	YopH inh	others
N#CCC(=O)Nc1ccc(C(=O)OCC(=O)N=c2sccn2Cc2ccccc2Cl)cc1	/	/	1	5.1	/
O=C(NCCCN1CCN(c2ccc(F)cc2)CC1)NC12CC3CC(CC(C3)C1)C2	/	/	92	1.1	/
CN=C(Nc1cc(C)nn1CCC#N)c1ccccc1	5	-8%	-2	0.9	-31
COc1ccc(NC(=O)C2CCN(c3nnnn3-c3ccccc3)CC2)cc1	10	-2%	-3	/	-13
Cc1ccc(OCC(=O)Nc2ccc(N3CCOCC3)cc2)cc1	-7	-6%	-6	-2.1	-49
CCOc1ccc(CN2CCNC(=O)C2CC(=O)NCCN2CCOC2=O)cc1 (centres undefined)	/	/	-9	0.7	/
COc1cccc(CC(=O)OCC(=O)N(C)CC(=O)Nc2ccc(Cl)c(C(F)(F)F)c2)c1	/	/	-8	-1.7	/
Cc1cc(OCC(=O)N[C@@H](Cc2ccccc2)C(=O)O)c2c3c(c(=O)oc2c1)CCCC3	/	/	2	-0.7	/
COc1ccc(OC)c(N(C)S(=O)(=O)c2cc3c(cc2C)NC(=O)CO3)c1	/	/	-2	-1.5	/
CCOC(=O)c1ccccc1C(=O)OCC	/	/	4	1.6	/
COC(=O)CN1C(=O)C(O)=C(C(C)=O)C1c1ccc([N+](=O)[O-])cc1 (centres undefined)	2	-5%	?	-0.7	-15
Cc1nn(C)c(Oc2ccccc2)c1CCNC(=O)CC(C)C	13	-4%	-10	-3.5	/
O=C(c1cc2ccccc2oc1=O)N(Cc1cccs1)CC1CCCO1 (centres undefined)	-1	-1%	-2	4.7	/
O=C(COC(=O)[C@H](Cc1c[nH]c2ccccc12)NC(=O)c1ccc(Cl)cc1)Nc1ccc2c(c1)OCO2	-21	-21%	5	7.2	-11
Oc1ccc(C=Nc2ccc3ncccc3c2)c(O)c1	-25	?	93	53*	72*
CC(C)NC(=O)NC(=O)COC(=O)c1cccc(S(=O)(=O)N2CCCCC2)c1	10	-10%	-7	-1.3	-17
CC(=O)NCCOc1ccc2oc3ccccc3c2c1	3	14%	1	/	-25
Nc1cccc2c1C(=O)N(C(=O)/C=C/c1ccc(F)cc1)C2=O	1	-1%	1	-392	/
COc1ccc(NC2c3ncccc3C(=O)N2Cc2ccccc2)c(OC)c1 (centres undefined)	-4	0%	0	7.8	-6
O=C(Nc1csc(Cc2c(Cl)cccc2Cl)n1)NN1CCOCC1	/	/	7	1.3	/
CCOc1ccccc1C(=O)N(C)Cc1cc2ccccc2[nH]c1=O	7	-2%	-1	1.1	-20
O=C(NCc1cccc(Cl)c1)c1ccc(-c2csnn2)cc1	/	0%	-7	2.2	/
CC(C)(C)c1cc(C(F)(F)F)n2ncc(-c3ccccc3)c2n1	7	4%	-4	4.0	/
COCCn1c(=NC(=O)c2sc3ccccc3c2Cl)sc2cc(S(N)(=O)=O)ccc21	-5	-2%	5	-1.4	-20

Continued; it opens with the 7 that closed the last part.
SMILES	Arbovirus inh	Mtb H37Rv	Mtb betalactam	RecA intein inh	YopH inh	others
Nc1cccc2c1C(=O)N(C(=O)/C=C/c1ccc(F)cc1)C2=O	1	-1%	1	-392	/
COc1ccc(NC2c3ncccc3C(=O)N2Cc2ccccc2)c(OC)c1 (centres undefined)	-4	0%	0	7.8	-6
O=C(Nc1csc(Cc2c(Cl)cccc2Cl)n1)NN1CCOCC1	/	/	7	1.3	/
CCOc1ccccc1C(=O)N(C)Cc1cc2ccccc2[nH]c1=O	7	-2%	-1	1.1	-20
O=C(NCc1cccc(Cl)c1)c1ccc(-c2csnn2)cc1	/	0%	-7	2.2	/
CC(C)(C)c1cc(C(F)(F)F)n2ncc(-c3ccccc3)c2n1	7	4%	-4	4.0	/
COCCn1c(=NC(=O)c2sc3ccccc3c2Cl)sc2cc(S(N)(=O)=O)ccc21	-5	-2%	5	-1.4	-20
Cc1ccc(-c2csc(NC(=O)CCNC(=O)c3ccc(Cl)cc3)n2)cc1	-2	1%	-8	-1.0	/
COC(=O)C1=C(COc2ccccc2)NC(=O)NC1c1ccc2ccccc2c1 (centres undefined)	/	-1%	-3	-2.1	/
Cc1ccc(-c2noc(CCC(=O)Nc3cccc(C#N)c3)n2)cc1	-10	?	96	0.7	36
O=C(c1ccc(Cl)cc1)N1CCOc2ccccc21	/	/	8	1.4	/
CN1c2ccccc2Oc2nnc(N3CCN(Cc4ccccc4)CC3)cc21	-34	4%	5	-15	/
OCCN(CCO)c1ccc(C(c2ccccc2Cl)c2ccc(N(CCO)CCO)cc2Cl)c(Cl)c1	-48	-7%	2	32*	-5
O=C1CN=C(c2cccs2)c2c(sc3c2CCCC3)N1	-8	4%	7	2.1	-34
C=CCn1c(O)c(N=Nc2ccccc2C)c2ccccc21	-13	-2%	0	-3.5	/
Cc1ccc(S(=O)(=O)CC(=O)Nc2ccc3nc(C)sc3c2)cc1	/	/	8	1.8	/
Clc1ccc(CSc2nnc(Cn3cnc4ccccc43)o2)cc1	-3	5%	90	4.0	-26
CCCOc1ccc(Cc2c(COCC)[nH]c(=S)[nH]c2=O)cc1	9	-5%	/	/	/
Cc1ccc(NC(=O)CSc2nnc(NC(=O)C3CC3)s2)cc1	/	/	-3	-4.1	/
CC(C)CC(=O)N1CCN(Cc2cccc(F)c2)CC1	15	-8%	-7	-0.5	-41

Compound activity (PubChem)
